Source: PubChem
rRNA inh HTS – reduced GFP signal of wild-type E. coli, primary screen, bacterial rRNA inhibitor project, GFP/RFP fluorescence, OD600, single point. AID 720706, 2013. GFP signal change (wild-type ribosome), % (concentration not given with the values). E. coli WT GFP vs humanized-ribosome RFP mutants, 24 h; stronger effect = lower value; DMSO median 0, no signal -100. hit rate 1.6% among 350,000;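 active means significant combined selectivity score with lowered wild-type GFP, culture density cut under 30%, mutant RFP and density less affected; inactive means any of these conditions unmet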; further: one replicate is shown; some compounds called inactive have numbers as strong as hits
FGF22 binding – binders of human FGF22 protein, primary screen, FGF22 synaptogenesis inhibitor project, biophysical, thermal shift, single point; Fibroblast growth factor 22 (Homo sapiens), Q9HCT0; recombinant FGF22 thermal shift, SYPRO orange fluorescence; percent of sucrose octasulfate shift, DMSO zero; calls only at 9.99 µM; hit rate 1.5% among 340,000; AID 651658, 2012;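 active means melting point raised past a set limit in the mean and every replicate; three in four hits are not shown here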
Target sequence (Q9HCT0 whole entry, looked up): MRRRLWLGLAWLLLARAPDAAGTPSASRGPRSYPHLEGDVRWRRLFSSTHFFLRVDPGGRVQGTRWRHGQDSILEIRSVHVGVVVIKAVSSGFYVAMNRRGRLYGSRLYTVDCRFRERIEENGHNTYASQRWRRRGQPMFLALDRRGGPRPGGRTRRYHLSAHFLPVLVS
rRNA inh HTS OD600 – second read-out of rRNA inh HTS, no call of its own (marks repeat the call); OD600 change, %; measured here: OD600 growth;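 optical density of the mix in the first replicate; 0 = DMSO median and -100 = no signal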
rRNA inh HTS RFP – recorded beside rRNA inh HTS, whose call it bears; RFP signal change, %; measured here: RFP humanized mutant strains;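 first replicate; 0 = DMSO median and -100 = no signal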
Active calls of the source: *; i = inactive; & = joins results of further samples. A portion of the library. The share of hits here may be higher or lower than overall.

1	COc1ccc(S(=O)(=O)Nc2ccc3c(c2)C(=O)N([C@H](C)CO)C[C@H](C)[C@H](CN(C)Cc2ccccc2)OCCCC[C@@H](C)O3)cc1
2	C/C=C/c1ccc(C2[C@@H]3CN(C(=O)CN4CCOCC4)C[C@H]2N3)cc1 (some centres not stated)
3	CN1CCN(C(=O)C[C@H]2C[C@H]3c4cc(NS(=O)(=O)c5ccc(F)cc5)ccc4O[C@H]3[C@@H](CO)O2)CC1
4	CCCCCC(=O)NC1CCCCN(C)C1=O (configuration not stated)
5	O=C(C1CC1)N1C[C@@H]2N[C@H](C1)C2c1ccc(-c2cccc(F)c2)cc1 (some centres not stated)
6	CCNC(=O)C[C@@H]1CC[C@H]2[C@@H](COC[C@H](O)CN2C(=O)Nc2cccc(OC)c2)O1
7	COCC(=O)N1CCCCN2[C@H](CO)[C@H](c3ccc(-c4ccc(OC)cc4)cc3)[C@@H]2C1
8	O=C(N[C@H](Cc1ccccc1)C(=O)N1CCCN(Cc2ccccc2F)CC1)[C@H]1O[C@@H](n2ccc(=O)[nH]c2=O)[C@H](O)[C@@H]1O
Screen / compound no.,1,2,3,4,5,6,7,8
rRNA inh HTS,2,2&5,0,-3,3&0,1,-1,10
rRNA inh HTS OD600,-4,22&10,-4,2,7&5,8,-5,4
rRNA inh HTS RFP,-1.8,2.1&-1.9,-2.5,-4.3,4.6&0.9,-2.9,4.3,2.7
FGF22 binding,i,i,i,i,i,i,i,i

9	O=C(CN1CCOCC1)N1CC[C@@H]2[C@H](CO)Nc3ccc(-c4ccccc4F)cc3[C@@H]21
10	COc1ccc(NC(=O)N2C[C@@H]3N[C@H](C2)C3c2ccc(-c3ccncc3)cc2)cc1 (some centres not stated)
11	O=C(Nc1ccccc1)N1CCCCN2[C@H](CO)[C@@H](c3ccc(-c4ccccc4F)cc3)[C@H]2C1
12	O=C(C[C@@H]1CC[C@@H]2[C@H](COC[C@@H](O)CN2C(=O)Nc2ccc(Cl)cc2)O1)NCC1CCCCC1
13	C[C@@H]1CN([C@@H](C)CO)C(=O)c2cc(NC(=O)CCCN(C)C)ccc2O[C@@H](C)CCCCO[C@H]1CN(C)C(=O)CCC(F)(F)F
14	C[C@H](CO)N1C[C@H](C)[C@@H](CN(C)S(=O)(=O)c2ccc(Cl)cc2)Oc2ccc(NS(=O)(=O)c3ccc(F)cc3)cc2CC1=O
15	Cc1noc(C)c1NC(=O)Nc1ccc2c(c1)C(=O)N([C@@H](C)CO)C[C@@H](C)[C@@H](CN(C)C(=O)Nc1cccc3ccccc13)OCCCC[C@@H](C)O2
16	C[C@@H]1CN([C@@H](C)CO)C(=O)c2cc(-c3ccncc3)cnc2O[C@@H]1CN(C)C(=O)Cc1cccnc1
Screen / compound no.,9,10,11,12,13,14,15,16
rRNA inh HTS,-1,3,-59,-57,2,-3,1,8
rRNA inh HTS OD600,1,18,-72,-69,1,1,-9,6
rRNA inh HTS RFP,2.3,0.0,-17,-18,0.0,1.2,0.5,-1.8
FGF22 binding,i,i,i,i,i,i,i,i

17	C[C@H](O)C#Cc1cnc2c(c1)C(=O)N([C@@H](C)CO)C[C@@H](C)[C@H](CN(C)Cc1cncnc1)O2
18	COCC(=O)Nc1ccc2c(c1)C(=O)N(C)[C@H]1CC[C@@H](CC(=O)O)O[C@@H]1CO2
19	CCCNC(=O)C[C@@H]1CC[C@@H]2[C@H](COc3ccc(NC(=O)COC)cc3C(=O)N2C)O1
20	Cc1noc(C)c1S(=O)(=O)N(C)C[C@H]1OCCCC[C@@H](C)Oc2ccc(NC(=O)CCC(F)(F)F)cc2C(=O)N([C@H](C)CO)C[C@@H]1C
21	COc1cccc(-c2ccc3c(c2)[C@H]2[C@H](CCN2C(=O)C2CCC2)[C@@H](CO)N3)c1
22	Cc1noc(C)c1NC(=O)N(C)C[C@H]1OCCCC[C@H](C)Oc2ccc(NS(C)(=O)=O)cc2C(=O)N([C@@H](C)CO)C[C@@H]1C
23	CCCNC(=O)N(C)C[C@@H]1Oc2cc(C#CC(C)C)ccc2S(=O)(=O)N([C@@H](C)CO)C[C@@H]1C
24	CC(C)C(=O)Nc1ccc2c(c1)C(=O)N(C)[C@H]1CC[C@@H](CC(=O)N[C@H](C)c3ccccc3)O[C@H]1CO2
Screen / compound no.,17,18,19,20,21,22,23,24
rRNA inh HTS,6,1,6,1,12,2,-3,-2
rRNA inh HTS OD600,13,-8,2,-2,-22,11,-2,-2
rRNA inh HTS RFP,-1.1,1.0,-2.0,-0.5,-2.5,1.6,-2.1,-2.1
FGF22 binding,i,i,i,i,i,i,i,i

25	COc1ccc(S(=O)(=O)Nc2ccc3c(c2)C(=O)N([C@H](C)CO)C[C@H](C)[C@@H](CN(C)C(=O)Nc2cccc4ccccc24)OCCCC[C@H](C)O3)cc1
26	C[C@H](CO)N1C[C@H](C)[C@H](CN(C)Cc2ccc(C(=O)O)cc2)Oc2ccc(NC(=O)CCN3CCOCC3)cc2CC1=O
27	O=C(N[C@H](C(=O)N1CCC[C@H]1C(=O)NCCc1ccccc1Cl)C1CCCCC1)C1CC1
28	C[C@@H]1CN([C@@H](C)CO)C(=O)Cc2cc(NC(=O)CCCCCC(=O)Nc3ccccc3N)ccc2O[C@@H]1CN(C)C(=O)Nc1ccc(C(F)(F)F)cc1
29	COCCNC(=O)C[C@@H]1C[C@@H]2c3cc(NS(=O)(=O)c4ccc(F)cc4)ccc3O[C@@H]2[C@@H](CO)O1
30	Cc1cc(N2CCN(C(=O)OC(C)(C)C)C[C@@H]2C)ccc1N1CCS(=O)(=O)CC1
31	CC(C)C(=O)Nc1ccc2c(c1)C(=O)N(C)[C@@H]1CC[C@@H](CC(=O)NCc3ccccc3F)O[C@@H]1CO2
32	COCCNC(=O)C[C@H]1C[C@@H]2c3cc(NS(=O)(=O)c4ccc(F)cc4)ccc3O[C@@H]2[C@H](CO)O1
Screen / compound no.,25,26,27,28,29,30,31,32
rRNA inh HTS,-8,5,4,1,-2,3,1,2
rRNA inh HTS OD600,-5,5,5,6,3,5,3,4
rRNA inh HTS RFP,-2.0,-2.3,7.7,0.6,-1.1,-0.4,0.1,-0.3
FGF22 binding,i,i,i,i,i,i,i,i

33	Nc1nc2ncccc2cc1C(=O)NC1CC1
34	CC(C(=O)NC1CCCC1)n1c(-c2ccccn2)nc2ccccc21 (configuration not stated)
35	CN1CCN(C(=O)C[C@H]2C[C@H]3c4cc(NC(=O)Nc5ccccc5)ccc4O[C@H]3[C@H](CO)O2)CC1
36	CCOc1cc(-c2ccccc2)nc2c1CN(S(=O)(=O)c1ccc(C)cc1)C(c1cccc(Cl)c1)C2 (configuration not stated)
37	O=C(Cc1c[nH]c2ccccc12)Nc1ccc(Nc2cccnc2)c(-c2ccc(Oc3ccccc3)cc2)c1
38	C[C@H]1CN([C@@H](C)CO)C(=O)c2cc(NC(=O)Nc3ccc4c(c3)OCO4)ccc2O[C@@H]1CN(C)C(=O)Nc1ccc(F)cc1
39	COC(=O)C1=C(C)N(Cc2ccccc2C(F)(F)F)C(=NCc2ccc(OC)cc2)NC1c1ccccc1 (configuration not stated)
40	FC(F)(F)c1cccc(CN2[C@@H]3CNC[C@H]2[C@@H]3c2ccc(-c3cccnc3)cc2)c1
Screen / compound no.,33,34,35,36,37,38,39,40
rRNA inh HTS,17,-13,3,5,5,7,-45,-2
rRNA inh HTS OD600,21,-8,-3,3,8,12,-78,11
rRNA inh HTS RFP,3.8,3.1,-0.9,2.3,0.5,0.7,-13,-4.0
FGF22 binding,i,i,i,i,i,i,i,i

41	CN(C(=O)c1cccc(NC(=O)Cc2ccc(NC(=O)C3CCCN(C(=O)c4ccccc4)C3)cc2)c1)C1CC1 (configuration not stated)
42	CCCNC(=O)C[C@@H]1C[C@@H]2c3cc(NC(=O)c4ccc5c(c4)OCO5)ccc3O[C@@H]2[C@H](CO)O1
43	COC(=O)C[C@@H]1CC[C@H]2[C@@H](COc3ccc(NC(=O)c4cc(F)cc(F)c4)cc3C(=O)N2C)O1
44	COC(=O)C[C@H]1C[C@@H]2c3cc(NC(=O)Nc4ccc(OC)cc4)ccc3O[C@@H]2[C@H](CO)O1
45	Cc1ccc(C(=O)NC2CCCCN(C)C2=O)c(C)c1 (configuration not stated)
46	Cc1noc(C)c1NC(=O)Nc1ccc2c(c1)CC(=O)N([C@@H](C)CO)C[C@@H](C)[C@@H](CN(C)C(=O)NC(C)C)O2
47	C[C@@H]1CCCCO[C@@H](CN(C)CC2CCCCC2)[C@H](C)CN([C@H](C)CO)C(=O)c2cc(NC(=O)NC3CCCCC3)ccc2O1
48	Cc1ccc(S(=O)(=O)Nc2ccc3c(c2)CC(=O)N([C@@H](C)CO)C[C@@H](C)[C@H](CN(C)S(=O)(=O)c2ccc(F)cc2)O3)cc1
Screen / compound no.,41,42,43,44,45,46,47,48
rRNA inh HTS,-3,1,-3,-3,10,1,5,-1
rRNA inh HTS OD600,-2,6,-5,-3,12,6,1,-2
rRNA inh HTS RFP,-0.6,-1.1,-2.2,-2.3,-1.1,-2.0,2.2,4.3
FGF22 binding,i,i,i,i,i,i,i,i

49	COc1ccc(S(=O)(=O)Nc2ccc3c(c2)C(=O)N([C@@H](C)CO)C[C@@H](C)[C@@H](CN(C)CC2CCCCC2)OCCCC[C@@H](C)O3)cc1
50	C[C@H](CO)N1C[C@H](C)[C@H](CN(C)Cc2cccc(F)c2)OCc2ccccc2-c2c(n(C)c3ccccc23)C1=O
51	C[C@H]1CN([C@@H](C)CO)S(=O)(=O)c2ccc(-c3ccccc3)cc2O[C@H]1CN(C)Cc1cccnc1
52	COc1ccc(S(=O)(=O)N(C)C[C@@H]2OCCCC[C@H](C)Oc3ccc(NC(=O)Nc4ccccc4)cc3C(=O)N([C@@H](C)CO)C[C@H]2C)cc1
53	CO[C@@H]1CN(C)C(=O)c2ccc(NC(C)=O)cc2OC[C@@H](C)N(C(=O)CC2CC2)C[C@@H]1C
54	NC(=O)c1ncn([C@@H]2O[C@H](C(=O)N[C@H](Cc3ccccc3)C(=O)O)[C@@H](O)[C@H]2O)n1
55	O=C(Cc1cn(Cc2ccccc2)c2ccccc12)Nc1ccc(Oc2cccnc2)cc1
56	O=C(C[C@H]1CC[C@H]2[C@@H](COC[C@@H](O)CN2Cc2cc(F)cc(F)c2)O1)Nc1nccs1
Screen / compound no.,49,50,51,52,53,54,55,56
rRNA inh HTS,4,-5,-6,-2,2,33,-7,-7
rRNA inh HTS OD600,-10,5,-12,1,-1,14,5,-8
rRNA inh HTS RFP,8.5,-0.9,1.6,0.9,0.8,-1.2,55,-0.1
FGF22 binding,i,i,i,i,i,i,i,i

57	COCc1cc(N2CCN(C(=O)OC(C)(C)C)C[C@@H]2C)ccc1N1CCN(Cc2ccccc2)[C@H](C)C1
58	C[C@@H]1CN([C@@H](C)CO)C(=O)c2cc(NC(=O)Nc3ccc(C(F)(F)F)cc3)ccc2O[C@@H](C)CCCCO[C@H]1CN(C)S(=O)(=O)c1ccc(Cl)cc1
59	CCCN(C(=O)c1cn(CCC)c2ccccc12)c1ccc(Oc2cccnc2)cc1
60	C[C@@H]1CN([C@@H](C)CO)C(=O)c2cc(NS(=O)(=O)c3cn(C)cn3)ccc2O[C@@H](C)CCCCO[C@H]1CN(C)Cc1ccc2c(c1)OCO2
61	O=C(C[C@@H]1CC[C@@H]2[C@H](COC[C@H](O)CN2S(=O)(=O)c2cccc(F)c2)O1)NCc1ccncn1
62	CN1C(=O)c2cc(NC(=O)c3cccs3)ccc2OC[C@H]2O[C@@H](CC(=O)N3CCOCC3)CC[C@@H]21
63	COC(=O)C[C@H]1CC[C@H]2[C@@H](COC[C@@H](O)CN2S(=O)(=O)c2ccccc2OC)O1
64	CNC(=O)C[C@@H]1CC[C@H]2[C@@H](COC[C@H](O)CN2S(=O)(=O)c2ccccc2Cl)O1
65	COc1ccc2c3c(n(C)c2c1)[C@H](CO)N(CC1CC1)CC31CN(C(=O)Nc2ccccc2)C1
Screen / compound no.,57,58,59,60,61,62,63,64,65
rRNA inh HTS,4,6,-35,1,1,2,3,1,-3
rRNA inh HTS OD600,7,14,-60,10,-6,5,7,14,2
rRNA inh HTS RFP,-1.3,-6.3,43,-1.8,2.6,-0.3,-2.6,-3.1,-1.6
FGF22 binding,i,i,i,i,i,i,i,i,i

Record cards, from the list above. Order of screens: rRNA inh HTS	rRNA inh HTS OD600	rRNA inh HTS RFP	FGF22 binding
Profile of `CCCN(C(=O)c1cn(CCC)c2ccccc12)c1ccc(Oc2cccnc2)cc1` : -35	-60	43	i
Profile of `CN1C(=O)c2cc(NC(=O)c3cccs3)ccc2OC[C@H]2O[C@@H](CC(=O)N3CCOCC3)CC[C@@H]21` : 2	5	-0.3	i
Profile of `CNC(=O)C[C@@H]1CC[C@H]2[C@@H](COC[C@H](O)CN2S(=O)(=O)c2ccccc2Cl)O1` : 1	14	-3.1	i
Profile of `O=C(C[C@@H]1CC[C@@H]2[C@H](COC[C@H](O)CN2S(=O)(=O)c2cccc(F)c2)O1)NCc1ccncn1` : 1	-6	2.6	i
Profile of `COc1ccc2c3c(n(C)c2c1)[C@H](CO)N(CC1CC1)CC31CN(C(=O)Nc2ccccc2)C1` : -3	2	-1.6	i
